# RecA splice inh: blocks M. tuberculosis RecA intein splicing | P9WHJ3 | cell-free RecA intein splicing, fluorescence | inhibition, %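 (about 9 µM by stock and volumes)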 | hit rate 0.75% among 290,000; in the data active means inhibition above about 30%; inconclusive means no clear call, values can overlap the other calls;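 further: 0% = vehicle wells and 100% = reference inhibitor control wells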
# Target sequence (P9WHJ3 whole entry, looked up, canonical isoform): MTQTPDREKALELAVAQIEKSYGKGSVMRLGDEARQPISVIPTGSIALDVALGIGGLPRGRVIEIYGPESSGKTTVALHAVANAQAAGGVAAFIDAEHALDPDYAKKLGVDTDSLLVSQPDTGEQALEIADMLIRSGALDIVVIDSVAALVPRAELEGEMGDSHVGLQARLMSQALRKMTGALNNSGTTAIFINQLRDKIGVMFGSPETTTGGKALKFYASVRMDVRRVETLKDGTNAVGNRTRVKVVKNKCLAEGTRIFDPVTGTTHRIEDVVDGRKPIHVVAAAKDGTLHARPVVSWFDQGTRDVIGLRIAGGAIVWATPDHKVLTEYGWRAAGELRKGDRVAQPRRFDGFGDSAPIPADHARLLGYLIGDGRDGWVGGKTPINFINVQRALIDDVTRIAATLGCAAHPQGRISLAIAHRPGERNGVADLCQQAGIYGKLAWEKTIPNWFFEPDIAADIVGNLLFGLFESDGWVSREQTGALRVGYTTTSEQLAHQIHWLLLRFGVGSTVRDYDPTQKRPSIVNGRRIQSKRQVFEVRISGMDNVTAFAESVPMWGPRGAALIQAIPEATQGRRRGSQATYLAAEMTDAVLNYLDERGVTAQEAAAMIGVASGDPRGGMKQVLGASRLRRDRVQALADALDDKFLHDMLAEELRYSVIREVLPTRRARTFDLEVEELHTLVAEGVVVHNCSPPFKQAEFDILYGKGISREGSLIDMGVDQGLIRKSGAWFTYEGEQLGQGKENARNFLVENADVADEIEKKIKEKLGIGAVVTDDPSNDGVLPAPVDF
# Arbovirus inh: arbovirus infection inhibition; arbovirus infection cell-based antiviral screen; inhibition, % at 10 µM; hit rate 0.37% among 200,000; AID 1251;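 active means inhibition from about 30%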;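 further: bluetongue infection of BSR cells; cell survival read as ATP light after 72 h; 0% = infected wells without compound and 100% = uninfected wells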
# Mtb growth: M. tuberculosis H37Rv growth inhibitors, H37Rv strain (AID 1626); M. tuberculosis H37Rv growth inhibition; higher % means a stronger effect; inhibition, % at 10 µM; hits with a dose series show IC50 in µM; hit rate 0.95% among 220,000;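 active means confirmed in a dose series; inconclusive means inhibition above 80% but not taken into the dose series; inactive means below 80% or under 30% at every dose of the series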;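 further: bacteria incubated seven days before Alamar blue readout; 0% = bacteria only wells and 100% = bacteria with antibiotic wells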
# YopH inh: YopH (Yersinia) phosphatase inhibition | fluorescence Ex485/Em525 | inhibition, %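 (about 10 µM by stock and volumes)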 | hit rate 0.16% among 140,000;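 active means inhibition of 50% or more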;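 further: controls were vehicle for no effect and minimum signal wells for full effect; inactives centre near -20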
# Mtb betalactam: beta-lactam sensitization of Mtb H37Rv. M. tuberculosis H37Rv growth with meropenem, percent inhibition; hits of this screen are not shown here. inhibition, % at 25 µM. hit rate 0.27% among 330,000. AID 434955;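 active means about 74% or more and at least 40 points above the plate without the antibiotic, then above 30% in a dose series; inconclusive means first-round hits that could not be retested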;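 further: growth measured after seven days incubation then overnight dye step; 0% = bacteria only wells and 100% = bacteria with antibiotic; twin plates without the antibiotic show which effects depend on it; some results filed as inactive read as strong as hits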
# Arbovirus inh repeat: second read-out of Arbovirus inh, no call of its own (marks repeat the call); inhibition, %; measured here: 10K subset replicate screen; many hits read low in the repeat;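 first of two repeat runs on a subset; 0% = infected and 100% = uninfected wells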
# The depositor's hits bear a star; ? = inconclusive; . = not tested or not shown. Only part of the results is shown; rates above refer to the full screens.
SMILES,RecA splice inh,Arbovirus inh,Mtb growth,YopH inh,Mtb betalactam,others
O=C1c2ccccc2C(=O)N1/N=C/c1ccc(O)c(O)c1O,-5.7,.,5.9%,.,.,
O=C(CSc1nc2ccccc2o1)N1c2ccccc2Sc2ccc(Cl)cc21,6.7,0.2,7.2%,1.0,70.0,
C/C(=N\S(=O)(=O)c1ccc(C)cc1)N1CCCCC1,2.3,-2.4,-0.7%,.,-1.2,
CC(=O)NC(C)Cc1cn(Cc2ccccc2)c2ccccc12 (centres undefined),-0.5,.,.,.,-3.4,
Cc1nc2[nH]c(=S)[nH]c2cc1Br,-0.9,-0.9,-5.1%,1.1,-10.6,
Oc1c(Cl)cc(Cl)cc1CNc1nc2ccccc2[nH]1,5.8,.,.,.,-0.9,
O=C(O)C1C2C=CC(C2)C1C(=O)N1CCN(CCO)CC1 (centres undefined),-1.9,3.5,.,-30.4,3.2,
Cc1cccc(C)c1OCC(=O)Nc1ccncc1,1.9,.,.,.,-4.0,
C=CCn1c(Oc2ccc(C=O)cc2OCC)nc2c1c(=O)n(C)c(=O)n2C,1.5,.,.,.,4.1,
CN(C(=O)N1CCN(S(=O)(=O)c2ccccc2)CC1)c1ccccc1,-1.6,-3.3,-3.0%,.,6.3,
Cc1ccc2c(c1)NC(=O)C(CC(=O)NCCCN1CCCCC1)O2 (centres undefined),0.9,-1.0,-1.5%,-40.3,-7.0,
O=C(Cn1c(=O)n(Cc2ccco2)c(=O)c2c3c(sc21)CCCC3)Nc1ccccc1,12.3,-3.4,8.4%,-31.7,5.6,
CC(NC(=O)Cc1cccs1)c1ccncc1 (centres undefined),1.1,10.5,7.7%,-8.9,-13.4,
O=C(/C=C/c1ccc([N+](=O)[O-])cc1)N1CCN(c2ccccc2F)CC1,-2.8,-0.1,-6.3%,-37.4,9.6,
COc1ccc(N(C(=O)c2ccco2)C(C(=O)NC2CCCC2)c2ccncc2)cc1OC (centres undefined),0.0,.,.,.,1.8,
COc1cc(C)c(NC(c2ccccc2)c2ccccc2)cc1OC,-1.0,-6.3,10.6%,.,2.7,
COc1ccc(N=C2SC(C(=O)N3CCN(c4ccc([N+](=O)[O-])cc4)CC3)CC(=O)N2C)cc1 (centres undefined),-0.2,-7.6,10.2%,.,-0.4,
CCOC(=O)[C@@H]1[C@H]2COc3ccc(Br)cc3[C@H]2N2C(=O)N(c3ccc(Cl)cc3)C(=O)[C@@]12C,3.9,.,.,.,-6.0,
COc1ccc(CN(C(C)=O)c2cccc(C)c2C)cc1,0.7,-10.3,-1.7%,-1.3,-10.8,
N#C/C(=C\c1ccc(N2CCOCC2)cc1)c1ccccc1,7.2,-17.0,15.7%,-24.6,47.5,
COC(=O)c1ccccc1NC(=O)C1CC(=O)N(c2ccc(C)cc2)C1 (centres undefined),-0.7,-9.6,2.6%,12.2,0.6,
CCn1cc(Br)c(C(=O)Nc2ccccc2C(=O)OC)n1,3.6,7.6,5.8%,.,11.0,
COCCCNC(=S)NCCc1ccc(F)cc1,-2.4,1.5,-0.8%,.,-4.4,
Cc1nc(C)c(C(=O)NNS(=O)(=O)c2ccc3ccccc3c2)s1,-3.9,13.0,2.1%,-16.8,0.8,
O=C1OC(N2C(=O)CC[C@H]2C(=O)Nc2ccc(Br)cc2F)c2ccccc21 (some centres undefined),0.1,.,.,.,1.0,
Nc1nc(-c2ccc(Cl)cc2)c(N=Nc2ccc(S(=O)(=O)N3CCOCC3)cc2)s1,-3.5,-33.5,64.9%,4.9,21.4,
CC1CCCC(C)N1C(=O)c1ccccc1Nc1ccc(SC(F)F)cc1 (centres undefined),1.2,-23.5,-10.2%,-28.9,?,
COc1cc(S(=O)(=O)N2CCN=C2c2ccccc2)ccc1F,-0.8,-19.1,-7.9%,-27.0,-9.0,
CN1CCN(c2ccc3nccnc3c2)CC1,-103.8,16.8,-1.5%,.,-6.3,
O=c1[nH]c(C2CCN(S(=O)(=O)Cc3ccccc3)CC2)nc2c1nnn2Cc1ccccc1Cl,-3.1,.,.,.,8.1,
S=c1[nH]nc(-c2ccco2)n1/N=C/c1ccccn1,-1.8,-1.2,0.0%,.,-10.4,
CCN(CC(=O)Nc1c(F)cccc1F)C(=O)c1ccc(C)c(S(=O)(=O)N2CCCCC2)c1,-2.3,.,.,.,-5.9,
CCC(C)N=CC1=C(O)CC(c2ccccc2)CC1=O (centres undefined),0.0,2.4,-10.7%,8.5,-6.3,
C/C(=N/NS(=O)(=O)c1cc(C)ccc1C)c1ccncc1,2.5,.,.,.,3.2,
Cc1ccc2cccc(OC(=O)N(C)c3ccccc3)c2n1,.,-5.4,3.6%,-12.4,8.4,Arbovirus inh repeat=-2.9
O=C(CS(=O)(=O)c1ccccc1)Nc1ccc(S(=O)(=O)Nc2ncccn2)cc1,.,20.5,-4.3%,.,-6.0,
CC(C)c1ccc(S(=O)(=O)NC2CCCC2)cc1,0.4,.,.,.,-6.9,
O=C(Nc1nc2ccccc2s1)C1CCCO1 (centres undefined),0.2,7.8,-11.0%,-36.3,3.8,
Cc1ccc(S(=O)(=O)Nc2nc3c(s2)C(=O)CC(C)(C)C3)cc1,-1.0,7.9,5.6%,.,-0.3,
CSCc1ccc(C(=O)NCc2ccc(F)cc2)cc1,3.4,4.3,5.3%,-34.5,-0.2,

# Looked up by structure from above:
SMILES,RecA splice inh,Arbovirus inh,Mtb growth,YopH inh,Mtb betalactam,others
Cc1nc(C)c(C(=O)NNS(=O)(=O)c2ccc3ccccc3c2)s1,-3.9,13.0,2.1%,-16.8,0.8,
O=C(/C=C/c1ccc([N+](=O)[O-])cc1)N1CCN(c2ccccc2F)CC1,-2.8,-0.1,-6.3%,-37.4,9.6,
O=C(Nc1nc2ccccc2s1)C1CCCO1 (centres undefined),0.2,7.8,-11.0%,-36.3,3.8,
COc1ccc(N(C(=O)c2ccco2)C(C(=O)NC2CCCC2)c2ccncc2)cc1OC (centres undefined),0.0,.,.,.,1.8,
CC(NC(=O)Cc1cccs1)c1ccncc1 (centres undefined),1.1,10.5,7.7%,-8.9,-13.4,
Cc1ccc2cccc(OC(=O)N(C)c3ccccc3)c2n1,.,-5.4,3.6%,-12.4,8.4,Arbovirus inh repeat=-2.9
CCC(C)N=CC1=C(O)CC(c2ccccc2)CC1=O (centres undefined),0.0,2.4,-10.7%,8.5,-6.3,

# Later entries:
SMILES,RecA splice inh,Arbovirus inh,Mtb growth,YopH inh,Mtb betalactam,others
CCOc1ccc(N(CC(=O)Nc2nccs2)S(=O)(=O)c2c(C)[nH]c(=O)[nH]c2=O)cc1,-1.3,7.2,1.9%,.,-9.6,
O=C(COc1ccc(Br)cc1)NC1CC1,-46.7,.,.,.,-18.8,
COc1ccc(C2C(=O)c3ccccc3C2=O)c(OC)c1,-0.4,2.1,4.5%,-28.1,18.5,
O=C(CSc1nnc2ccccn12)Nc1nsc(-c2ccccc2)n1,-1.1,11.5,3.8%,-1.1,-1.2,
Cc1cc(=O)oc2cc(OCC(=O)NC3CCN(Cc4ccccc4)CC3)ccc12,4.0,.,.,.,-1.9,
CC(C)C(NC(=O)c1cccs1)C(=O)NC1=NCCS1 (centres undefined),-0.7,14.9,-1.6%,-23.1,-1.7,
O=C(NCc1ccccn1)c1ccc(N2CCCC2)c([N+](=O)[O-])c1,0.5,-2.7,2.3%,.,-7.0,
Cn1c(/C=C/c2cccc([N+](=O)[O-])c2)c([N+](=O)[O-])c(=O)n(C)c1=O,5.4,.,.,.,84.7,
O=S(=O)(Cc1ccccc1)N=Nc1c(O)[nH]c2ccc(Br)cc12,5.3,.,-8.4%,.,-3.7,
CC1CCCC(NC(=S)Nc2cccc(S(=O)(=O)N(C)C)c2)C1C (centres undefined),4.7,-13.0,-4.4%,.,38.7,
Cn1ccnc1C1CCCCN1Cc1nc(Cc2ccccc2F)no1 (centres undefined),-0.8,2.0,-3.3%,.,1.4,
CC1(C)Cc2cccc(OCC(=O)NC3CC3)c2O1,-4.1,1.5,0.3%,9.3,2.1,
COc1ccc(N2CCN(CCCNC(=O)C3CCCN(S(=O)(=O)c4c(C)n[nH]c4C)C3)CC2)cc1 (centres undefined),-2.8,-0.5,3.2%,.,3.0,
NC(N)=NS(=O)(=O)c1ccc(NC(=S)NC(=O)c2sc3ccccc3c2Cl)cc1,-2.6,-3.8,-5.6%,-20.1,8.6,
Cc1nn(-c2ccccc2)c(Cl)c1/C=C(\CC(=O)O)c1nc2ccccc2s1,0.0,10.9,-3.1%,-20.2,-6.8,
CCCCc1cc(=O)oc2cc(C)cc(OCC(=O)O)c12,1.1,-3.4,-17.2%,-13.9,11.2,
COC(=O)c1cn(-c2ccccc2)nc1-c1ccc(OC)c(OC)c1,14.5,.,.,.,18.3,
O=C(OCC1CC(c2ccccc2)=NO1)c1ccco1 (centres undefined),1.6,.,-5.3%,.,-1.2,
O=C(CSc1nnc(CNC(=O)c2ccccc2F)o1)NCc1ccco1,-4.5,.,.,.,-0.6,
OC1(c2cccc(C(F)(F)F)c2)CCN(CCN2CCCCC2)CC1,-1.0,.,.,.,3.4,
CN(CCOc1ccc(Cl)cc1)C(=O)C1CCN(C(=O)c2ccc(F)cc2)CC1,-0.1,.,.,.,-7.1,
COC(=O)C1=CN(Cc2ccc(OC)c(OC)c2)C=C(C(=O)OC)C1c1cccs1,-23.2,13.8,-3.2%,.,.,
CCn1cc(C(=O)N2CCN(c3cccc(C)c3C)CC2)c(=O)c2ccc(C)nc21,-17.2,.,2.5%,.,-4.7,
O=C1COc2ccccc2N1Cc1ccc(Cl)cc1,2.5,.,.,.,3.7,
Cc1nc2ccccc2c(=O)n1Cc1ccco1,1.0,.,-6.7%,.,-6.0,
C/C(CC(=O)Nc1ccc(C)c(Cl)c1)=N\NC(=O)c1cccc(O)c1,4.1,.,.,.,82.5,
Cc1ccc(C)c(NS(=O)(=O)c2cc(C(=O)NCc3ccncc3)ccc2C)c1,0.8,.,.,.,-7.9,
CCCOc1ccc(C2Nc3cccc4cccc(c34)N2)cc1,11.2,.,.,.,78.5,
COc1ccc(OC)c(/C=C/C(=O)Nc2ccc(OC)nc2)c1,-1.5,-3.2,1.2%,.,8.3,
Cc1ccc(-n2c(=O)cc(N3CCc4ccccc4C3)[nH]c2=O)cc1,.,0.8,-1.0%,38.2,-0.8,
O=C(NCCc1c[nH]c2ccccc12)C(=O)c1c[nH]c2ccccc12,3.8,.,.,.,1.8,
C#CCOc1ccccc1/C=C1/C(=O)ON=C1C,-2.7,.,.,.,4.0,
COc1ccc(C(=O)Oc2cc(OC)cc(OC)c2C(C)=O)cc1,-1.0,1.9,-5.1%,-16.0,0.1,
Cc1ccc(NC(=O)CS(=O)(=O)c2cn(CC(=O)N3CCOCC3)c3ccccc23)cc1,-2.0,2.4,2.9%,.,-8.2,
Cc1ccccc1-n1nc(C)c2cc(C(=O)NC3CC3)sc21,-1.4,-15.7,-4.1%,-10.3,4.5,
COc1ccc(CN2C(=O)CN(C3CCCCCC3)C(=O)C2c2ccc(OC)c(OC)c2)cc1 (centres undefined),-1.1,-6.4,-0.9%,-36.7,0.2,
COc1ccc(NC(=O)CCCN2C(=O)C(c3ccccc3)Oc3cccnc32)c(OC)c1 (centres undefined),-1.8,.,.,.,3.4,
Nc1nonc1C(=O)N1CCCC1,10.1,1.4,2.1%,.,-1.6,
COc1ccccc1CCNC(=O)NC1CCCCC1,-0.1,-2.4,-5.4%,.,-1.5,
Cc1ccc(OCC(O)CN2CCN(CC(O)COc3ccc(C)cc3Cl)CC2)c(Cl)c1 (centres undefined),-2.4,-8.0,21.6%,-14.0,20.7,Arbovirus inh repeat=0.8
C=CCN1C(=O)CS/C1=N\N=C\c1cccc([N+](=O)[O-])c1,0.7,-7.4,0.0%,.,9.5,
Cc1nn(-c2ccccc2)c(N2CCCC2)c1/C=N/NC(=O)c1cc(-c2ccccn2)nc2ccccc12,2.8,29.4,61.8%,-23.4,87.8,
CCOC(=O)Nc1ccc2nc3n(c(=O)c2c1)CCCCC3,-2.0,-1.3,-4.8%,.,10.2,
CC(C)(C)N1CCC1C(N)=O (centres undefined),0.0,.,.,.,-10.7,
COC(=O)c1c(C)[nH]c(C(=O)CSc2ccc(Cl)cc2)c1C,8.3,-5.1,1.0%,-11.4,-2.2,
Cc1csc(NC(=O)CSc2nnc(-c3cccs3)n2C)n1,0.4,3.1,-7.0%,-12.4,-2.8,
CN(C(=O)COC(=O)c1ccc(NS(=O)(=O)c2cccs2)cc1)C1CCCCC1,0.3,2.8,12.1%,15.7,0.7,
Cc1ccccc1N=Nc1ccc(O)c2ncccc12,1.4,-23.4,21.1µM*,-9.3,85.2,
O=C(CCCN1C(=O)c2ccccc2C1=O)NCc1ccco1,1.4,8.5,-0.6%,2.1,-5.8,

# Screening results as filed in PubChem.
